# VACV E9 pol inh: vaccinia E9 polymerase processive synthesis inhibitors, primary screen, biochemical, absorbance; in vitro processive DNA synthesis, absorbance read-out; active compounds read low; some inactives read as strong as hits; normalized absorbance, % (concentration not given with the values); 46,000 tested, 0.94% active; AID 493162, 2011;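 active = replicate mean up to 90% and picked by the depositor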;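 note: 100% = median of the test wells of a plate; 100 nL library stock went into each well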
# An asterisk follows results filed as active. Not all compounds are listed (hit frequency here may not be typical).
SMILES	VACV E9 pol inh
Cc1ccc(C2C(NC(=O)c3ccc(F)cc3)C([O-])=N/[N+]2=C\c2ccc(N(C)C)cc2)cc1 (stereo unspecified)	100
CC(C)N(C(=O)NC(=O)c1csnn1)C(C)C	100
CNc1ccccc1C(C)(C)c1cc(-c2cccnc2)n[nH]1	99
c1ccc(Cn2ccc3ccccc32)cc1	100
CCOC(=O)c1cccc(Nc2nc(C)cc(C)n2)c1	97
COc1cccc2sc(=NC(=O)c3ccccc3)n(C)c12	100
C=CCN(C(=O)c1cc2c(-c3ccc(OC)c(OC)c3)nn(C)c2s1)c1ccccc1	98
S=c1[nH]nc(CSc2nc(-c3ccccc3)cn2-c2ccccc2)n1-c1ccccc1	106
CCc1cccc(-n2c(-c3ccco3)nc3c(cnn3-c3ccccc3Cl)c2=O)c1	102
CCc1ccc(-n2c(N3CCC(C)CC3)nc3ccccc3c2=O)cc1	102
COc1ccc2[nH]c(O)c(N=O)c2c1	100
CCOC(=O)c1sc(/S(C)=N/S(=O)(=O)c2cccc(Cl)c2)c2c1CCC=C2 (stereo unspecified)	108
CCOc1cc(OCC)c2c3c(c(=O)oc2c1)CCC3	98
Cc1ccc(N2C(=O)CC(Cc3ccccc3)C2=O)cc1 (stereo unspecified)	100
COc1ccc(NC(=O)CCCn2c(=S)[nH]c3ccccc3c2=O)cc1	101
CCOC(=O)c1c(COC(C)=O)n(C)c2cc(Br)c(OC)cc12	99
O=C(NCc1ccccc1)c1ccccc1	99
Cc1cc(C)n(-c2nc3cc(Cl)ccc3nc2NCc2ccc(F)cc2)n1	108
COc1ccc(CNCC(=O)O)cc1	94
Fc1cccc2sc(NCc3ccccc3)nc12	100
CC1(C)Cc2ccccc2C(N2CCOCC2)=N1	99
Oc1c(C=Nc2ccc(Cl)cc2)[nH]c2ccccc12	100
CCOc1ccc(OCCSc2nc(C)cc(=O)[nH]2)cc1	100
O=C(CCSc1ccccc1)NCc1ccco1	100
COc1ccc(-c2cc(C(=O)NCc3cccc(OC)c3)c3ccccc3n2)cc1	100
Cc1ccccc1NS(=O)(=O)c1ccc2c(c1)n(C)c(=O)n2C	97
CN(C)c1ccc(CO)c(F)c1C#N	94
COC(=O)c1sc(SC)c(C#N)c1-c1cccc(Cl)c1	92
CC(C)(C)c1cc(C(=O)Oc2cncc(Cl)c2)cc(C(=O)Oc2cncc(Cl)c2)c1	95
CC(C)OC(=O)C(C)Oc1ccc2c(=O)c(-c3ccccc3)coc2c1 (stereo unspecified)	100
COc1ccccc1NC(=O)CSC(=O)c1ccccc1	112
CCc1ncc(C(O)c2ccc(OC)cc2)n1C (stereo unspecified)	102
CC(C)NC(=O)NCc1c(F)cccc1Cl	108
CCCc1cc(=O)oc2cc(OC(C)=O)cc(OC(C)=O)c12	98
CC(C)n1cc(-c2noc(-c3ccccc3Cl)n2)c(=O)n(Cc2ccccc2)c1=O	105
CCc1ccc(OCc2ccc(C(=O)OC)o2)cc1	100
CC(C)(C)C(=O)Nc1ccc2c(c1)OCO2	89
C[N+]1(C)C2CC(OC(=O)[C@@H](CO)c3ccccc3)CC1C1OC12 (stereo partly specified)	99
CS(=O)(=O)N1CCN=C1SCc1cccnc1	66*
CCc1ccc(NC(=O)C(C)OC(=O)c2ccc(C#N)cc2)cc1 (stereo unspecified)	107
O=C(Nc1cccc(Cl)c1)Nc1nc(-c2ccc(OC(F)(F)F)cc2)no1	97
COc1cccc(C=C2C(=O)c3ccccc3C2=O)c1OC(C)C	101
COc1ccc(C(=O)NC(Cc2ccccc2)C(=O)N2CCCCC2)cc1 (stereo unspecified)	97
O=C(CSc1nccn1-c1cccc(Cl)c1)NC1CCCC1	101
Cc1cc(Sc2nnc(/N=C/N(C)C)s2)c2ccccc2n1	97
CCC(C)N=C1CC(C)(C)CC(=O)/C1=C(\O)Cc1ccccc1 (stereo unspecified)	102
COc1ccc(Cl)cc1C(=O)Nc1ccc(NC(=O)c2ccco2)cc1	99
Cc1sc2nc3n(c(=O)c2c1C)N=C(c1ccc(F)cc1)CS3	86
NC(=O)C(c1ccccc1)c1ccc(C(=O)c2ccccc2)cc1 (stereo unspecified)	94
O=C1C2C=NNC2C(=O)N1Cc1ccccc1 (stereo unspecified)	99
Clc1ccc(CCc2ccc(Cl)cc2)cc1	98
CC1CCN(S(=O)(=O)c2ccc(/C=C/C(=O)O)cc2)CC1	95
N#CCCN(C(=O)C1CCCCC1)c1ccccc1F	102
FC(F)(F)c1cccnc1NCCNc1ncnc2scc(-c3ccccc3)c12	98
CC(=O)Oc1cc2c(cc1Cl)C(C)(C)CC(C)(c1cc(Cl)c(OC(C)=O)cc1OC(C)=O)O2 (stereo unspecified)	101
CCn1c2ccccc2c2nnc(NCCOc3cccc(C(F)(F)F)c3)nc21	100
CCOC(=O)CSCc1cn2cc(Cl)ccc2n1	97
CC(C)c1ccccc1OCC(=O)O	103
Cc1cc(/C=N/n2cnnc2)c(C)n1-c1cccc(C(F)(F)F)c1	101
Cc1c(C(=O)O)sc2nc[nH]c(=O)c12	81

# Of the compounds above, these contain a tert-butyl group.
SMILES	VACV E9 pol inh
CC(C)(C)c1cc(C(=O)Oc2cncc(Cl)c2)cc(C(=O)Oc2cncc(Cl)c2)c1	95
CC(C)(C)C(=O)Nc1ccc2c(c1)OCO2	89

# Additional compounds
SMILES	VACV E9 pol inh
c1coc(CCC2NCCn3cccc32)c1 (stereo unspecified)	101
O=C(O)CN1CCN(Cc2ccccc2)C1=O	98
Cc1ccc(C=Nc2ccc(F)c(F)c2)o1	102
CC(=O)N1CCC2(CC1)CC(=O)c1cc(OCC(=O)O)ccc1O2	104
O=S(=O)(c1ccccc1)N1CCCC1c1cccs1 (stereo unspecified)	93
CCN(CC)C(=O)C1=CC(c2ccc(OC)cc2)=NS(=O)(=O)N1C	94
N#CC(CC(=O)c1ccccc1)c1ccccc1 (stereo unspecified)	102
COc1ccc2ncc(C(=O)N3CCOCC3)c(Cl)c2c1	99
COc1ccc(/C=N/c2nc3ccccc3n2C)cc1OC	100
O=C(NC1CCCCC1)C(c1ccccn1)N(Cc1ccc2c(c1)OCO2)C(=O)C(F)(F)F (stereo unspecified)	102
Nc1scc[n+]1CC(=O)N1CCCc2ccccc21	100
CC(=O)OCC(=O)[C@@]12OC(C)(C)O[C@@H]1C[C@H]1C3C[C@H](F)C4=CC(=O)C=CC4(C)[C@@]3(F)[C@@H](O)C[C@@]12C (stereo partly specified)	100
CCCNS(=O)(=O)c1ccc(NC(=O)c2ccncc2)cc1	105
Cc1cccc(N2C(=O)/C(=C3/C(=O)N(CC(=O)O)c4ccccc43)SC2=S)c1C	95
Cc1cc(=O)oc2cc(OCC(=O)N3CCCC(C)C3)ccc12 (stereo unspecified)	102
O=C(NCc1cn2ccccc2n1)c1cc(F)c(F)c(F)c1F	105
C[N+]1(CC(=O)OCCCc2ccccc2)CCOCC1	100
Cc1ccc(C2CCN(C(=S)NCC3CCCO3)C2)cc1 (stereo unspecified)	94
CC(C)CCN1NC(C)(C)NC1=S	99
CC(C)(C)c1cc(O)c(C(C)(C)C)cc1O	100
CN(CCO)C(=O)c1cc(-c2ccc(Cl)cc2)nc2ccccc12	100
CC1N(C)c2cc(NC(=O)c3ccco3)ccc2C1(C)C (stereo unspecified)	100
COC(=O)CCCNc1ccc(C(F)(F)F)cc1N	101
COc1ccccc1C1C(C(=O)Nc2ccccc2F)=C(C)NC2=C1C(=O)CCC2 (stereo unspecified)	100
Cc1nc(-c2ccc3ccccc3n2)cn1Cc1ccc(F)cc1	99
CCn1c(COc2ccc(Cl)c3cccnc23)nnc1SC	86
O=S(=O)(c1ccc(F)cc1)N1C=CC(C(F)(F)F)=NCC1	97
CCc1ccc(OCC(=O)Nc2ccc3c(c2)COC3=O)cc1	101
O=C(Cn1c(=O)oc2cc(S(=O)(=O)NCc3ccccc3)ccc21)Nc1ccc(F)cc1	81
CCOC(=O)N1CCN(C(=O)C2COc3ccccc3O2)CC1 (stereo unspecified)	108
OC(COc1ccc(F)cc1)(c1ccc(Cl)cc1)c1ccc(Cl)cc1	94
Fc1ccc(C=Nc2ccc(Nc3ccccc3)cc2)cc1F	107
Cc1ccccc1NC(=O)C1CCN(C(=O)c2cc3sccc3n2Cc2ccc(F)cc2)CC1	103
Cc1ccc(NC(=O)CCn2nnc(-c3ccc(OCc4ccccc4F)cc3)n2)cc1C	100
Cc1ccc(NC(=O)CSc2ncnc3ccccc23)cc1C	109
C[C@@H]1C[C@@H]([C@H](O)CC2CC(=O)NC(=O)C2)C(=O)[C@@H](C)C1	94
Cc1ccc(S(=O)(=O)c2[nH]nc3ccc(Cl)cc23)cc1	97
CCOC(=O)c1c(C)[nH]c(NC(=O)Nc2nnc(CC)s2)c1C	96
Cn1c(=NC(=O)c2cccc3ccccc23)sc2cc(S(C)(=O)=O)ccc21	102
Cc1cccc(NC(=O)C(NS(=O)(=O)c2cccs2)C(C)C)c1C (stereo unspecified)	98

# A draw from above in order of length of the SMILES, low to high:
SMILES	VACV E9 pol inh
CCn1c(COc2ccc(Cl)c3cccnc23)nnc1SC	86
Cc1ccc(NC(=O)CSc2ncnc3ccccc23)cc1C	109
Cc1nc(-c2ccc3ccccc3n2)cn1Cc1ccc(F)cc1	99
Cn1c(=NC(=O)c2cccc3ccccc23)sc2cc(S(C)(=O)=O)ccc21	102
Cc1ccc(NC(=O)CCn2nnc(-c3ccc(OCc4ccccc4F)cc3)n2)cc1C	100

# Returning to the listing; the 2 compounds before the break are reprinted first.
SMILES	VACV E9 pol inh
Cn1c(=NC(=O)c2cccc3ccccc23)sc2cc(S(C)(=O)=O)ccc21	102
Cc1cccc(NC(=O)C(NS(=O)(=O)c2cccs2)C(C)C)c1C (stereo unspecified)	98
O=C(NCc1ccccc1)c1cc[n+]([O-])cc1	102
O=C(NCc1cccnc1)/C(=C\c1cccc(Oc2ccccc2)c1)S(=O)(=O)c1ccccc1	101
Cc1ccc2nc(Cl)c3cc(C(=O)N=C4NC(=O)CN4C)sc3c2c1	102
CC(C)(O)C#Cc1ccc(C(=O)NCc2cccs2)s1	80
Cc1ccc2c(c1)C(c1ccccc1)N(C(=O)c1ccc(C)c(C)c1)CC(=O)N2 (stereo unspecified)	92
O/N=C/c1nc(-c2ccccc2)n2ccccc12	100
O=C(O)CN(CCN(CC(=O)O)CC(=O)O)CC(=O)O	98
CCn1c2ccc(F)cc2c2nnc(NN)nc21	101
N=c1c(C(=O)NC2CCCCC2)cc2c(=O)n3ccccc3nc2n1Cc1cccnc1	100
CCc1ccc(NC(=O)c2cc3c(=O)[nH]c4ccccc4c3n2C)cc1	104
COc1ccc2cc3cc(C(=O)NCCC(C)C)sc3nc2c1	102
COc1ccc(CCNc2nc3ccccc3s2)cc1OC	97
CC(C)C(=O)Nc1ccc(-c2nc3ccccc3[nH]2)cc1	100
Cc1nc(C(F)(F)F)nc(Sc2ccccc2Cl)c1Oc1ccccc1	102
COc1ccc(-c2cc(-c3ccccc3O)nc(NC(N)=S)n2)cc1	101
S=C1NN(c2ccccc2)C2=C(CCC2)S1	100
Cn1cc(CC(=O)N2CCN(c3ccc(Cl)cc3)CC2)c2ccccc21	95
COc1ccc(/C=C\C(=O)Nc2c3c(nn2-c2cccc(Cl)c2)CSC3)cc1OC	92
O=C1c2ccccc2C(=O)c2c1n[n+]([O-])n2-c1ccc(F)cc1	90
COc1ccc(C2C(C(=O)Nc3ccc(C(F)(F)F)cc3)c3ccccc3C(=O)N2C)cc1 (stereo unspecified)	97

# Taken from above:
# Reading of O=C(O)CN(CCN(CC(=O)O)CC(=O)O)CC(=O)O under VACV E9 pol inh: 98
# Reading of O=C(NCc1ccccc1)c1cc[n+]([O-])cc1 under VACV E9 pol inh: 102

# (continued)
SMILES	VACV E9 pol inh
Cc1ccc(S(=O)(=O)N2CC(=O)N(O)C2c2ccccc2)cc1 (stereo unspecified)	101
CCN1CCN(Cc2oc(CO)cc(=O)c2O)CC1	99
N#Cc1c(N)c(C#N)c(-c2ccccc2)c2c1CCCC2	100
CCOC(=O)c1ccc(N2C(=O)NC(C(F)(F)F)(C(F)(F)F)C3=C2CC(C)(C)CC3=O)cc1	97
COc1cc(/C=C2/N=C(c3ccccc3)N(C)C2=O)cc(OC)c1OC	90
NS(=O)(=O)c1ccc(NC(=O)CCC2COc3ccccc3O2)cc1 (stereo unspecified)	104
CSC1=N/C(=C\c2ccc(Cl)cc2)C(=O)N1CCOc1ccc(Cl)cc1	82
CCOC(=O)NC(=O)c1ccc2ccccc2n1	102
O=C(O)c1ccccc1C(=O)Nc1ccc(Cl)cc1	97
CCOc1ccc2nc(NC(=O)c3ccc(C)cc3)sc2c1	103
O=C(Nc1ccc(-c2nc3ccccc3o2)cc1)C1CC1	100
Cc1ccc(NC(=O)CC#N)cc1	95
O=C1/C(=C/c2ccc3ccccc3c2)COc2ccccc21	113
O=C(CSc1cc(Cl)ccc1Cl)OCC(=O)c1ccccc1	91
O=C(O)CCC(=O)Nc1ccccc1C#Cc1ccc(Br)cc1	99
COc1ccc2nc(C)cc(SCC(=O)c3ccc(Cl)cc3)c2c1	98
OCn1nc(-c2ccc(Cl)cc2Cl)oc1=S	100
NC1=NC(=O)C(CC(=O)Nc2ccccc2SC(F)(F)F)S1 (stereo unspecified)	106
CCN1CCN(C(=O)COc2cccc(Br)c2)CC1	103
